CDC25B CDK2 inh: primary biochemical HTRF screen for blockers of M-phase inducer phosphatase 2 binding to CDK2/cyclin A | HTRF CDC25B-CDK2/CyclinA binding, anti-His/anti-Flag; active compounds read high | z-score (no concentration beside the values) | hit rate 0.72% among 94,000 | AID 1259370, 2018;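 note: score is relative to mean and SD of negative controls; strong numbers were not always called active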
TAR Tat displ: TAR RNA-Tat peptide displacers, HIV-1, primary screen, biochemical, FRET, FAM/TAMRA-labeled Tat | HIV-1 TAR RNA, Tat peptide displacement FRET; active compounds read high | z-score (test concentration not listed) | hit rate 0.6% among 100,000;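 note: score is relative to mean and SD of negative controls; some compounds called inactive have numbers as strong as hits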
* = called active by the depositor; . = no result given; & = joins results of further samples.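 Rule for the calls: active = z-score from 3 up in half or more of its runs; inactive = the rest.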

SMILES	CDC25B CDK2 inh	TAR Tat displ
CCCNC(=O)Cn1c(C)cc(=O)n2nc(-c3cccs3)nc12	0.77	-1.3
CCCCN1C(=O)c2cc(C(=O)NCc3cccs3)nn2CC1(C)C(=O)NC1CCCC1 (stereo not drawn)	.	-0.62
Cc1ccc(NC(=O)Nc2sc3nc4n(c(=O)c3c2C)CCC(C)CC4)cc1C (stereo not drawn)	-2.4	0.54
Cn1c(SCC(=O)c2cn(C)c3ccccc23)nnc1-c1ccc2c(c1)OCCCO2	.	0
CC1=C(c2ccccc2)S(=O)(=O)N=C1Nc1ccc(Cl)cc1C	-3.1	0.39
O=C(O)C(Cc1ccccc1)NCc1ccccc1O (stereo not drawn)	0.69	.
COC(=O)c1cc2sccc2n1Cc1nc(-c2ccc(OC)c(OC)c2)oc1C	0.92	1
Cc1ccc2c(c1)N(C(C)C(=O)NCCN1CCOCC1)C(=O)CO2 (stereo not drawn)	0.27	.
CCOC(=O)c1c(S(=O)(=O)NCC(=O)Nc2nccs2)c(C)n(C)c1C	.	1.9
C=CCNC(=O)c1ccc(NC(=O)C2=CSCCO2)cc1	.	1.7
Cc1cc(-c2ccc(C)c(S(=O)(=O)Nc3ccc(C)c(F)c3)c2)on1	.	0.74
CCN(CC)S(=O)(=O)c1ccc2c(c1)N(C(C)=O)CCS2	.	1.4
Cc1ccc(-c2n[nH]c(=O)c3ccccc23)cc1S(=O)(=O)NC(C)C	0.82	0.46
O=C(c1ccccc1)c1cn(Cc2ccccc2)c2ccccc2c1=O	-2.2	.
Cc1cc(NCCCN(C)C)n2nc(C(F)(F)F)c(-c3ccc(Cl)cc3)c2n1	-1.2	0.98
COc1cc(C(=O)N2CCN(C3C4CC5CC(C4)CC3C5)CC2)cc(OC)c1OC (stereo not drawn)	-0.44	.
O=C1COc2ccc(S(=O)(=O)N3CCCC3C(=O)NC3CCCCC3)cc2N1 (stereo not drawn)	.	0.51
Cc1nnc(SCC(=O)Nc2sc3c(c2C#N)CCCC3)s1	-2.3	-0.94
COc1ccc(NCc2cccn2-c2nnc(N3CCN(C)CC3)s2)c(OC)c1	.	0.6
Cc1ccc(S(=O)(=O)N2CCC(CN3C(=O)c4cccc5cccc(c45)C3=O)CC2)cc1	-9.2	.
Cc1nc2cc(NS(=O)(=O)c3ccc(Oc4ccccc4)cc3)ccc2s1	0.74	.
CCSc1nc2n(n1)C(c1ccc(F)cc1)C1=C(CCCC1=O)N2 (stereo not drawn)	0.6	-0.2
Cc1cc(C)c2c(-n3cccc3)nn(CC(=O)NCCN(C)C)c2n1	.	1.1
Oc1sc(-c2ccccc2)cc1C=NCCN=Cc1cc(-c2ccccc2)sc1O	-0.6	-0.37
Cc1ccc2oc3c(c(=O)c2c1)C(c1ccc(F)cc1)N(Cc1ccc2c(c1)OCO2)C3=O (stereo not drawn)	-1.4	-0.14
C/C(=N\O)c1cc([N+](=O)[O-])ccc1O	-0.67	.
Cn1cccc1C(=O)N/N=C(\N)CN1CCCCC1	-1.9	.
COc1cccc(-c2nc(-c3ccncc3)no2)c1OC	0.62	1.4
CCCCN(C)C(=O)Cn1nc(CC)n2c(cc3sccc32)c1=O	-1.4	0.56
O=C(Nc1ccc(F)c(Cl)c1)C1CCCN(c2cnccn2)C1 (stereo not drawn)	-0.13	0.53
COc1ccc(S(=O)(=O)c2nnn(-c3cc(Cl)ccc3OC)c2C)cc1	-1.8	0.94
CC(C)CCSc1nnc2[nH]c(=O)cc(N)n12	0.77&-0.77	1.2
Cc1noc(/C=C/c2cccs2)c1S(=O)(=O)N1CCCC(C(=O)Nc2cccnc2)C1 (stereo not drawn)	-3.3	.
CCn1c(=O)n(CC)c2cc(NC(=O)CN3C(=O)c4ccccc4S3(=O)=O)ccc21	-0.78	0.85
Cc1ccccc1OCCSc1nc(-c2ccco2)nc2cc(=O)[nH]n12	.	0.76
COc1ccc(CNC(=O)NC2(C(F)(F)F)Oc3ccc(Cl)cc3O2)cc1 (stereo not drawn)	1.2	.
CCOC(=O)Cc1csc(NC(=O)c2cnc3scc(C)n3c2=O)n1	0.12	.
O=C(NCC(c1ccco1)S(=O)(=O)c1ccccc1)C(=O)NC1CC1 (stereo not drawn)	.	2.8
Nc1nc(-c2ccc(OCc3ccc(F)cc3)cc2)cs1	-0.15	.
CCN1C(=O)CCc2cc(NS(=O)(=O)CC)ccc21	.	0.59

The list goes on (5 carried over from the part before).
SMILES	CDC25B CDK2 inh	TAR Tat displ
COc1ccc(CNC(=O)NC2(C(F)(F)F)Oc3ccc(Cl)cc3O2)cc1 (stereo not drawn)	1.2	.
CCOC(=O)Cc1csc(NC(=O)c2cnc3scc(C)n3c2=O)n1	0.12	.
O=C(NCC(c1ccco1)S(=O)(=O)c1ccccc1)C(=O)NC1CC1 (stereo not drawn)	.	2.8
Nc1nc(-c2ccc(OCc3ccc(F)cc3)cc2)cs1	-0.15	.
CCN1C(=O)CCc2cc(NS(=O)(=O)CC)ccc21	.	0.59
Nc1c(C(=O)N/N=C/c2ccc([N+](=O)[O-])cc2)cnn1-c1ccccc1	-0.87	.
Cc1ccc2c(c1)[C@H]1OCC[C@H]1[C@@H](c1ccncc1)N2	-1.2	.
CC(=O)Nc1nonc1-c1nnc(SCC(=O)NC(C)c2ccccc2)n1C (stereo not drawn)	-1.3	0.12
O=S(=O)(c1ccc(Cl)cc1)N1CCCC(c2nc(-c3ccc(F)cc3)no2)C1 (stereo not drawn)	.	2.2
Cc1ccc(Nc2nnc(C(C)(C)C)c(=O)[nH]2)cc1	0.37	.
CCC(C)NC(=O)c1ccc2c(c1)nc1n2CCOC1 (stereo not drawn)	.	0.85
COC(=O)Cn1c(=O)c(=O)n(C)c2cccnc21	0.32	0.23
Cc1occc1-c1nnc(SCC(=O)NC(C)C)o1	-1.3	1.7
O=C(NCCCSCc1ccco1)Nc1ccc(F)c(Cl)c1	-0.98	-0.27
Cc1cc(C)c2oc(C(=O)N(Cc3ccco3)c3ccccn3)cc(=O)c2c1	-0.12	-0.03
Cc1ccccc1Cn1c2ccccc2c2cn[nH]c(=O)c21	-4.1	-1.3
COc1ccc(-n2nnnc2SCC(=O)O)cc1	1.9	0.85
C=CCNc1nc(NCCC)c2cnn(C)c2n1	.	0.72
CC(C)OCCCNC(=O)c1nn(C)c2c1CSc1ccccc1-2	-1.9	1.7
CN(C)S(=O)(=O)N1CCC(n2c(C(F)(F)F)nc3cccnc32)CC1	.	1.3
CCOc1ccc(-c2cn3ncsc3n2)cc1	-2	2.6
O=C(COCC(=O)N(c1ccccc1)c1ccccc1)NCC1CCCO1 (stereo not drawn)	.	0.26
CNC(=O)C(=O)NCC(c1cccs1)S(=O)(=O)c1ccc(F)cc1 (stereo not drawn)	.	2
COc1ccc(Nc2ncnc(N)n2)cc1	-0.35	0.53
CC(C)Cn1c(C2CC(=O)N(c3ccc(F)cc3)C2)nc2ccccc21 (stereo not drawn)	-0.54	0.7
Cc1ccc(Br)cc1[N+](=O)[O-]	-0.75	.
CSc1sc(-c2ccnc(SCCS(C)(=O)=O)n2)c(-c2ccccc2)c1C#N	-0.15	.
Cc1cc(NC2CCCCC2)n2nc(C)c(-c3ccc(F)cc3)c2n1	-1.1	-0.66
Nc1ccc2oc(-c3ccc(F)cc3)nc2c1	-0.59	0.4
COCCN(Cc1ccco1)C(=O)c1sc2nc3n(c(=O)c2c1C)CCCCC3	.	2.4
CN(C)c1ccc(C(CNS(=O)(=O)c2ccccc2)N2CCOCC2)cc1 (stereo not drawn)	.	-0.55
COC(=O)C1=C(C)NC2=C(C(=O)CC(C)(C)C2)C1c1ccc(OC)c(O)c1 (stereo not drawn)	0.15	-1.2
Cc1ccccc1Nc1nc(NCc2ccco2)nc2c1cnn2C	.	-1.8
COc1ccc(Cl)cc1-n1nnc(-c2nc(-c3ccccc3Cl)no2)c1N	.	0.38
COc1ccc(C(=O)CSc2nc3ccccc3c(=O)[nH]2)cc1	.	1.7
Cn1cc2cc([N+](=O)[O-])ccc2n1	-0.33	.
Cn1cccc1Cc1nnc(SCC(=O)Nc2nccs2)n1CCc1ccccc1	-1	.
CN(CC(=O)NCc1ccc2c(c1)OCO2)S(=O)(=O)c1ccc2[nH]c(=O)ccc2c1	.	0.23
Cn1nnnc1Sc1c(-c2ccccc2)c2ccc(Cl)cc2[nH]c1=O	-0.95	1.9
CCCC1CCc2c(sc(NC(=O)CCCC(=O)O)c2C(N)=O)C1 (stereo not drawn)	0.11	0.77
CCOC(=O)c1c(C)c(C(=O)NCc2ccco2)c(C)n1CC	-2.6	.
CCn1c2ccccc2c2cc(CN3CCC(N4CC(C)OC(C)C4)CC3)ccc21 (stereo not drawn)	-0.16	.
CSc1ncc(Cl)c(C(=O)Oc2ccc(F)cc2)n1	-1.7	1.3
CCn1c(SCc2nc(-c3cccc(Cl)c3)no2)nc2cc3c(cc2c1=O)OCO3	.	1.8
CC1CCCCN1CCNC(=O)CN1C(=O)CSc2ccc(S(=O)(=O)N3CCOCC3)cc21 (stereo not drawn)	.	0.42
O=C(O)CCC(=O)N1N=C(c2ccccc2)CC1c1ccc2nccnc2c1 (stereo not drawn)	-2	-1.9
O=C(CN(C1=NC2CS(=O)(=O)CC2S1)c1ccccc1F)Nc1ccc(F)cc1 (stereo not drawn)	-1.4	2.5
CCOC(=O)C1=C(c2ccccc2)NC(SC)=C(C#N)C1c1ccco1 (stereo not drawn)	1.3	.
CCCCc1c(C)nn(-c2nc(C)c(C(=O)N3CCN(C(=O)OCC)CC3)s2)c1C	0.23	1.3
CC(C)(C)c1ccc(Oc2ccc(NC(=O)CSCC(=O)O)cn2)cc1	-2	.
O=c1cc(COc2ccc(NS(=O)(=O)c3ccc(Cl)cc3)cc2)nc2sccn12	-0.89	1.8
O=C1c2ccccc2-c2onc3c(N4CCN(C(=O)c5ccco5)CC4)cc(NCc4ccco4)c1c23	1.6	15*
COc1ccc(C2NC(=O)N(C)C(C)=C2C(=O)Nc2ccccc2)cc1 (stereo not drawn)	-2	.
O=C(c1ccc2nc3c4ccccc4c4ccccc4c3nc2c1)N1CCCCC1	0.28	.
COC(=O)c1ccc(-c2c(NCc3ccccc3)oc3c2c(=O)n(C)c(=O)n3C)cc1	.	2.1
O=c1[nH]c(=O)n(Cc2cccnc2)c2c1CN(C1CCCC1)CN2	0.3	-0.39
Cc1[nH]c(=O)[nH]c(=O)c1S(=O)(=O)Nc1ccc(Br)cc1	-0.46	.
CCCCOc1ccc(-c2n[nH]c(=O)c(Cc3ccc(Br)cc3)n2)cc1	.	1.3
Cc1nn(CCCC(=O)N2CCC(C)CC2)c(=O)c2cc3sccc3n12	-1.8	-1.7
CN(Cc1ccco1)C(=O)CCS(=O)(=O)c1cccc2nsnc12	.	2
CCc1ccc(Nc2ncnc3c2nc2n3CCCC2)cc1	.	2.2
COc1ccccc1NS(=O)(=O)c1ccc(N2CCCCS2(=O)=O)cc1	.	-0.3
COc1cc(O)c2c(=O)cc(C)oc2c1CC=C(C)C	.	1.3
Cc1cc(NC(=O)CSc2nc3ccccc3c(=O)n2Cc2ccco2)n[nH]1	3.1	.
Cc1ccc2c(c1)c1c(n2CC(O)CN2CCCCC2)C(=O)CCC1 (stereo not drawn)	-0.7	.

A section taken from the entries so far:
SMILES	CDC25B CDK2 inh	TAR Tat displ
Cc1[nH]c(=O)[nH]c(=O)c1S(=O)(=O)Nc1ccc(Br)cc1	-0.46	.
CCCCOc1ccc(-c2n[nH]c(=O)c(Cc3ccc(Br)cc3)n2)cc1	.	1.3
Cc1nn(CCCC(=O)N2CCC(C)CC2)c(=O)c2cc3sccc3n12	-1.8	-1.7
CN(Cc1ccco1)C(=O)CCS(=O)(=O)c1cccc2nsnc12	.	2
CCc1ccc(Nc2ncnc3c2nc2n3CCCC2)cc1	.	2.2
COc1ccccc1NS(=O)(=O)c1ccc(N2CCCCS2(=O)=O)cc1	.	-0.3
COc1cc(O)c2c(=O)cc(C)oc2c1CC=C(C)C	.	1.3

Further compounds follow:
SMILES	CDC25B CDK2 inh	TAR Tat displ
Cc1ccc(NS(=O)(=O)c2c(C)nc3sccn3c2=O)cc1C	.	3.5
O=C(Nc1cccc(Cl)c1)c1cc2c(s1)-c1ccccc1S(=O)(=O)C2	0.31	2.1
Cc1nnc(Sc2ccc([N+](=O)[O-])c(Sc3nnc(C)s3)n2)s1	-1.3	.
CCOC(=O)c1cnc(NC(=O)CSc2nnc3sc4ccccc4n23)s1	-0.79	-1.2
COc1ccc(-c2noc(CSc3nnc(-c4ccc(Cl)cc4)n3C)n2)cc1OC	-0.09	1.7
COC(=O)c1sccc1N1Cc2ccncc2C1=O	.	0.86
N#CC1=C(SCC(=O)Nc2nccs2)NC(=O)CC1c1cccs1 (stereo not drawn)	-0.79	.
COc1ccc2nc3sc(C(=O)N4CCCCC4)cc3cc2c1	-1.9	.
O=C(O)C1C2CCC(O2)C1C(=O)n1cc(Cl)cn1 (stereo not drawn)	-1.5	.
COC(=O)c1sc(=S)n(-c2ccc(F)c(F)c2)c1N	.	2.3
O=C(C(=O)N1CCc2ccccc2C1)c1cn(CC(=O)N2CCOCC2)c2ccccc12	.	1.3
CC(C)COC(=O)C1C(=O)CC(C)(O)C(C(=O)OCC(C)C)C1c1cccnc1 (stereo not drawn)	0.14	.
CSc1nc(N)nc(N2CCCCC2)n1	5.6	.
O=C1COc2cc(-c3c(N4CCN(c5ccccc5)CC4)c(=O)c3=O)ccc2N1	.	-0.42

Record cards, as listed above. Order of screens: CDC25B CDK2 inh | TAR Tat displ
CSc1nc(N)nc(N2CCCCC2)n1 is entered as 5.6 | .
Cc1nnc(Sc2ccc([N+](=O)[O-])c(Sc3nnc(C)s3)n2)s1 is entered as -1.3 | .

Three compounds picked at random from those above, as already listed:
SMILES	CDC25B CDK2 inh	TAR Tat displ
O=C1COc2cc(-c3c(N4CCN(c5ccccc5)CC4)c(=O)c3=O)ccc2N1	.	-0.42
COc1ccc2nc3sc(C(=O)N4CCCCC4)cc3cc2c1	-1.9	.
COC(=O)c1sc(=S)n(-c2ccc(F)c(F)c2)c1N	.	2.3

Screening data: PubChem, Center for Chemical Genomics, University of Michigan
